# Screening results as filed in PubChem.
# StopGo reporter: High Throughput Screening for Foot and Mouth Disease Virus Antivirals. AID 1159524, 2015. 410,000 compounds, 1.2% hits. human cells with a luciferase reporter of 2A StopGo recoding; control for the full effect not named in the record. Potency, µM (doses to about 57.9 µM), inactives show top-dose signal change, negative = less light; active = well fitted falling curve with a large enough effect; inconclusive = small, poorly fitted or top-dose-only effect; inactive = no such curve, though single readings can be large or run the other way; tested in HEK293T cells; also: % is scaled to controls: 0 for no effect and ±100 for the full control effect; nearly all actives have a fitted effect of over 45% in size; luciferase light after 4 h
# NS1 inh: qHTS Assay for Inhibitors of Influenza NS1 Protein Function; S. cerevisiae slowed by influenza A NS1, growth recovery by OD600; Potency, µM (doses to about 46.1 µM), for inactives: top-dose activity, positive = more growth; 270,000 compounds, 0.4% hits; AID 2326, 2010; active means well fitted rising curve with a large enough effect; inconclusive means small, poorly fitted or top-dose-only effect; inactive means no such curve, though single readings can be large or run the other way; also: nearly all actives have a fitted effect of over 50% in size
#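 S. cerevisiae expressing influenza A NS1, grown in glucose, washed, then diluted 1:100 into pH 6.0 -URA galactose medium with 23 nl compound. Growth recovery read as OD600; NS1-free strain serves as control.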
# Cruzain noTriton: qHTS Assay for Promiscuous and Specific Inhibitors of Cruzain (without detergent); 200,000 compounds, 2.3% hits; AID 1476, 2009; purified cruzain, Z-FR-AMC fluorescence, no detergent; Potency, µM, for the others: max response, negative = inhibition, hits mostly inhibitors;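 also: plate controls were enzyme without inhibitor for no effect and buffer without enzyme for full effect; nearly all actives have a fitted effect of over 40% in size; top concentration of the series not given in the record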
# Target sequence (P25779 123-467 limits assumed): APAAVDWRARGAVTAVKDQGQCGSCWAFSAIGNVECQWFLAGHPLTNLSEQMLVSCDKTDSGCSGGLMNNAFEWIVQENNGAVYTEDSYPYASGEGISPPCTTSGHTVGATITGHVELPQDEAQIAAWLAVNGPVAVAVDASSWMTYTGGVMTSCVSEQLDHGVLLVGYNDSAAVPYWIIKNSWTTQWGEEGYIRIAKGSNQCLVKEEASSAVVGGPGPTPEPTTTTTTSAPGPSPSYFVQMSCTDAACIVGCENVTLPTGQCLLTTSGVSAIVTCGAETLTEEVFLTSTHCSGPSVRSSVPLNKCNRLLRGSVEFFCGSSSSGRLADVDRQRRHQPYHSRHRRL
#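 Detergent-free condition (0.00005% Triton X-100) in acetate buffer pH 5.5 with DTT. 1.5 nM enzyme and compound were pre-mixed 15 min, then 2 uM Z-FR-AMC substrate added; reaction progress from fluorescence change between first and third reads (60 s).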
# RE007 growth inh: qHTS Assay for Inhibitors of the HIV-1 protein Vpr; 360,000 compounds, 0.21% hits; Potency, µM (series often up to 92.2 µM), inactives show top-dose activity change, negative = less growth; S. pombe RE007 Vpr strain, BacTiter-Glo ATP luminescence, 24 h; control for the full effect not named in the record; active = well fitted falling curve with a large enough effect; inconclusive = small, poorly fitted or top-dose-only effect; inactive = no such curve, though single readings can be large or run the other way;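 also: % is scaled to controls: 0 for no effect and ±100 for the full control effect; nearly all actives have a fitted effect of over 50% in size; the assay follows cell death caused by Vpr and the record does not say whether a fall means rescue or toxicity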
#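 Fission yeast strain RE007, carrying one chromosomally integrated HIV-1 vpr copy, was seeded at OD 0.01 in PMG+AL medium with 23 nL pinned compound. After 24 h at 30 °C and 99% humidity, viability was read by BacTiter-Glo luminescence.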
# LASV entry inh: qHTS for Inhibitors of binding or entry into cells for Lassa Virus | Lassa virus pseudotype entry inhibition, cell reporter; control for the full effect not named in the record | Potency, µM (titrated, usually from 37.9 µM), without a hit: at the top dose activity change, negative = inhibition, usual class: inhibitors | 300,000 compounds, 1.2% hits; active means well fitted inhibition curve with a large enough effect; inconclusive means small, poorly fitted or top-dose-only effect, or effect the other way; inactive means flat fitted curve, though single readings scatter; tested in HEK293 cells; also: % is scaled to controls: 0 for no effect and ±100 for the full control effect; nearly all actives have a fitted effect of over 50% in size; luciferase read-out
# MARV entry inh: qHTS for inhibitors of binding or entry into cells for Marburg Virus; Marburg virus pseudotyped entry inhibition, cell reporter; control for the full effect not named in the record; about a third of the inactives were read at about 46 µM; Potency, µM (doses to about 37.8 µM), without a hit: at the top dose activity change, negative = inhibition, usual class: inhibitors; 300,000 compounds, 1.8% hits; active = well fitted inhibition curve with a large enough effect; inconclusive = small, poorly fitted or top-dose-only effect, or effect the other way; inactive = flat fitted curve, though single readings scatter; tested in HEK293 cells; about a fifth of its hits are not listed in these tables; also: % is scaled to controls: 0 for no effect and ±100 for the full control effect; luciferase read-out
# SARS PLP yeast: qHTS of Yeast-based Assay for SARS-CoV PLP; Potency, µM (doses to about 32.9 µM), for inactives: at the highest dose activity, positive = growth rescue; 330,000 compounds, 0.19% hits; AID 485353, 2010; S. cerevisiae expressing SARS-CoV PLpro, growth rescue; control for the full effect not named in the record; active means well fitted rising curve with a large enough effect; inconclusive means small, poorly fitted or top-dose-only effect; inactive means no such curve, though single readings can be large or run the other way; also: 0% is about no effect; nearly all actives have a fitted effect of over 55% in size; growth read by luminescence after 48 h
# Cruzain inh Det: qHTS Assay for Promiscuous and Specific Inhibitors of Cruzain (with detergent); Cruzipain (Trypanosoma cruzi), P25779; purified cruzain, Z-FR-AMC fluorescence, 0.01% Triton; Potency, µM, for inactives: max response, negative = inhibition, actives largely listed as inhibitors; 200,000 compounds, 0.43% hits; AID 1478, 2009;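 also: plate controls were neutral wells for no effect and buffer without enzyme for full effect; nearly all actives have a fitted effect of over 40% in size; top concentration of the series not given in the record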
#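 Enzyme 1.5 nM, Z-FR-AMC 2 uM, NaOAc 100 mM pH 5.5, DTT 5 mM, Triton X-100 0.01%; 15 min RT compound preincubation; kinetic ex360/em450, 60 s delta.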
# * = called active by the depositor; ? = inconclusive; . = no result given; & = joins results of further samples; [ ] = dose if it differs, or a comment. Unless noted, calls follow the shape of the dose curve; as a rule, active = well fitted curve in the direction sought with a large enough effect; inconclusive = small, poorly fitted or top-dose-only effect, or another doubt; inactive = no such curve, though single readings can be large; an effect the other way counts as inactive or inconclusive. Potency is read from the fitted curve at half-maximal effect. Random draw from the library. About 4.7% of those tested had a hit in this group.
SMILES,StopGo reporter,NS1 inh,Cruzain noTriton,RE007 growth inh,LASV entry inh,MARV entry inh,SARS PLP yeast,Cruzain inh Det
Cc1cccc(C(=O)NCC(=O)NC2CCN(Cc3ccccc3)CC2)c1,-10%,.,.,3%,0%,14%,.,.
FC(F)(F)c1nnc2c(Sc3ccc(Cl)cc3)nc3ccccc3n12,?,12%,-13%,-9%,4%,2%,1%,3.9%
O=S(=O)(c1ccc(Cl)cc1)N1CCc2ccccc21,?,-2%,.,-8%,.,.,-7%,.
COc1ccccc1NC(=O)COC(=O)c1cc(C)n(C2CC2)c1C,-2%,.,.,8%,0%[46.1 µM],-1%[46.1 µM],-1%,.
CCN(CC)c1ccc([N+](=O)[O-])c2cccnc12,?,.,.,-11%,-14%,?,-3%,.
C=CCN=C1NN=C(c2ccc3c(c2)OCCO3)CS1,8.9µM*,.,.,0%,0.46µM*,0.92µM*,23%,.
Cc1ccc(S(=O)(=O)Nc2cc3c4c(c2)C(C)C(=O)N4CCC3)cc1 (stereo not given),-5%,.,.,0%,-29%,?,5%,.
NS(=O)(=O)c1ccc(NC(=O)COC(=O)Cn2cnc3ccccc3c2=O)cc1,-12%,.,.,4%,1%,17%,2%,.
CCN(CC)S(=O)(=O)c1cccc(NC(=O)CCNC(=O)c2ccc([N+](=O)[O-])cc2)c1,-25%,-42%,.,4%,.,.,3%,.
CC(=O)c1c(C)[nH]c(C(=O)N2c3ccccc3CC2C)c1C (stereo not given),-10%,-12%,-7%,-3%,.,.,-9%,2.3%
Cc1c(CCC(=O)NCCc2ccccc2)c(=O)oc2c(C)c(O)ccc12,-4%,.,-3%,.,11%[46.1 µM],3%[46.1 µM],.,-2.7%
CN1CCN(c2ccncc2S(=O)(=O)N2CCCCC2)CC1,-2%,?,.,-3%,2%,4%,4%,.
CCOc1ccc(NS(=O)(=O)c2ccc3[nH]cc(C(=O)NCC4CCCO4)c(=O)c3c2)cc1 (stereo not given),10%&-4%,-52%,?,7%,-10%,3%&1%&3%[46.1 µM],2%,-15%&-8.5%
CCNC(=O)CC1C(=O)N(c2cccc(OC)c2)C(=O)N1Cc1ccc(OC)c(OC)c1 (stereo not given),-1%,.,-5%,.,-2%[46.1 µM],-1%[46.1 µM],.,2.1%
COc1ccc(C2(O)CCN(Cc3nnnn3Cc3ccc(C)cc3)CC2)cc1,.,-14%,8%,-10%,?,?,0%,-9.7%
COc1ccc(C(=O)NC(=S)Nc2ccc(Cc3ccncc3)cc2)cc1,-26%,11%,.,-5%,?,?,12%,.
OCCC1CN(Cc2ccc(Oc3ncccn3)cc2)CCN1CCc1ccccc1 (stereo not given),31%,0%,.,2%,.,3%,-1%,.
COc1ccc(OCC2NCCc3cc(OC)c(OC)cc32)cc1 (stereo not given),-9%,-16%,.,11%,.,.,1%,.
O=C(C1=NN[C@@H]2C(=O)N(Cc3ccccc3)C(=O)[C@H]12)c1ccc(F)cc1,-9%,-4%,.,-17%,1%,-1%[46.1 µM],0%,.
O=C1c2nccnc2C(=O)N1Cc1ccccc1,-6%,.,.,26%,25%,?,.,.
CC(C(=O)N1CCCCC1)N1C(=O)c2ccccc2C1=O (stereo not given),-6%,8%,1%,-5%,1%,?,0%,3.1%
Cc1ccc(OCc2nnc(NC(=O)OCC(C)C)s2)cc1,-9%,-5%,20µM*,18%,8%,16%,-4%,1.6%
COc1ccc(C(=O)NC(=S)N2CCCC2)cc1,11%,1%,.,-3%,?,1%[46.1 µM],0%,.
CN(C)Cc1c[nH]c2cc([N+](=O)[O-])ccc12,7%,.,.,-6%,-4%[46.1 µM],-27%[46.1 µM],.,.
CCOC(=O)c1c(C)[nH]c(C)c1C(=O)COC(=O)c1cc2ccccc2cc1OC,?,-22%,?,-17%,?,?,-16%,-7.1%
# (cont.)
SMILES,StopGo reporter,NS1 inh,Cruzain noTriton,RE007 growth inh,LASV entry inh,MARV entry inh,SARS PLP yeast,Cruzain inh Det
CCC(C)[C@H](NC(=O)NCCCn1ccnc1)C(=O)OC (stereo not given in full),-15%,14%,-7%,3%,4%,?,13%,1.0%
COc1ccc(-c2nc(SCC(=O)Nc3ccc4c(c3)OCCO4)c(-c3ccc(F)cc3)[nH]2)cc1,-5%,.,4%,.,-16%[46.1 µM],20%[46.1 µM],.,-1.9%
N#Cc1nc(-c2cccc(Cl)c2)oc1NCc1cccnc1,26%,-17%,-2%,9%,-12%,?,0%,?
C/C(=N\Nc1nc(-c2cc(C)ccc2C)cs1)c1cc2c(ccc3ccccc32)oc1=O,0%,29%,7.9µM*,19%,16%,28%,-4%,-8.2%
COc1ccc(-c2[nH]ncc2CN2CCC(O)(c3ccc(Cl)cc3)CC2)cc1,-22%,2%,.,-5%,-7%[46.1 µM],?,0%,.
COc1cc(OC)c2c(C)cc(=O)oc2c1C(CCN1CCN(c2ccccc2)CC1)c1ccc2c(c1)OCO2 (stereo not given),28%,-9%,.,-24%,.,.,-3%,.
COC(=O)c1sc2cccc(F)c2c1S(=O)(=O)N1CCN(c2cccc(OC)c2)CC1,-1%,.,?,.,?,.,.,-4.4%
NC(=O)COc1cccc(/C=N/NC(=O)c2ccc(-n3cccc3)cc2)c1,-2%,2%,.,5%,.,.,1%,.
O=C(OCc1ccccc1)c1ccc2c(c1)-c1ccccc1C2=O,58%[activator],1%,-7%,-9%,?,16%,16µM*,5.6%
CCc1nnc(SCC(=O)NC2CCCC2)nc1CC,9%,-8%,-12%,11%,12%,?,7%,5.9%
CCC(C)NC(=O)c1cc(Cl)c(NC(=O)C2=C(C)OCCS2)cc1OC (stereo not given),-9%,-1%,.,-4%,.,.,-1%,.
CC1CN(CC(O)COCc2ccc3c(c2)OCO3)CC(C)O1 (stereo not given),6%,1%,.,7%,.,.,23%,.
CCc1noc(C)c1C(=O)Nc1cccc(S(=O)(=O)N2CCCCCC2)c1,-22%,.,.,9%,0%,1%,.,.
Cc1ccccc1CNC(=O)CCC(=O)N1CCOc2ccccc21,-8%,26%,.,8%,.,.,-1%,.
CCN(CC1CCCN(CCc2cccc(OC)c2)C1)C(=O)c1ccc(COC)o1 (stereo not given),26%,-9%,.,-9%,?,9%[46.1 µM],2%,.
O=C(NCCCN1CCOCC1)c1ccc([N+](=O)[O-])cc1[N+](=O)[O-],-9%,.,.,-1%,13%[46.1 µM],-7%[46.1 µM],4%,.
CCSc1nc(N)c(C#N)c(-c2ccccc2Cl)c1C#N,-25%,7%,-4%,1%,-13%,-1%&-1%,14%,-5.5%
COc1ccc(CN2CC(C(=O)NCCCN3CCCC(C)C3)CC2=O)cc1 (stereo not given),8%,-10%,.,-8%,-3%[46.1 µM],27%[46.1 µM],-1%,.
Cc1c(-c2ccccc2)oc2c(C(=O)OCC(=O)Nc3ccc(F)cc3)cccc2c1=O,-14%,-8%,-2%,9%,8%,17%,0%,-6.3%
O=C(COC(=O)c1ccc(O)cc1O)NCCN1C(=O)CSC1=O,-25%,6%,.,19%,21%,5%[46.1 µM],-1%,.
COc1ccc(NC(=O)CCNS(=O)(=O)c2ccc3c(c2)c(=O)n(C)c(=O)n3C)cc1,-2%,?,5%,-17%,3%,5%,5%,7.0%
COc1ccc(OCC(=O)OCc2cc(=O)n3nc(C4CC4)sc3n2)cc1,-4%,.,-2%,.,-16%[46.1 µM],.,.,-3.4%
O=c1oc2cc(O)ccc2s1,-16%&2%,.,-6%,0%,.,.,.,-1.6%
COc1ccccc1NC(=O)COC(=O)Cc1c[nH]c2ccccc12,-25%,.,.,6%,11µM*,-2%,-3%,.
CCOC(=O)C1ON2CCCCC2C1(O)C(F)(F)F (stereo not given),-11%,.,.,16%,9%[46.1 µM],6%[46.1 µM],1%,.
# Following part:
SMILES,StopGo reporter,NS1 inh,Cruzain noTriton,RE007 growth inh,LASV entry inh,MARV entry inh,SARS PLP yeast,Cruzain inh Det
O=C(Nc1ccccc1N1CCCCC1)c1ccc(F)cc1,0%,-8%,-1%,-12%,-13%,-17%,-14%,-0.7%
COc1ccc(NC(=O)COc2cccc3c2OC(C)(C)C3)c(OC)c1,-2%,.,.,-15%,?,?,-4%,.
CC(C)C(=O)Nc1nnn(C)n1,10%,2%,-6%,-8%,0%,-4%,-7%,1.7%
COc1ccc(NC(=O)CCN2C(=O)c3ccccc3C2=O)cc1,3%,12%,.,2%,.,.,-2%,.
COc1cc(-c2nc3cnccn3c2Nc2c(C)cccc2C)ccc1O,.,0%,6%,-2%,2%,-7%,7%,-3.0%
CCc1nn(CCCC(=O)NCc2ccccc2Br)c(=O)c2cc3occc3n12,-13%&-17%,3%,-10%,-11%,.,0%&0%[46.1 µM],-12%,-1.3%
COCCn1c(SCC#N)nnc1-c1ccc([N+](=O)[O-])cc1,3%,.,.,-6%,-7%[46.1 µM],13%[46.1 µM],3%,.
c1ccc(Cn2nnnc2C(c2cccs2)N2CCCCCC2)cc1 (stereo not given),.,-40%,-10%,18%,25%,?,-32%,-4.6%
Cc1onc(-c2ccccc2)c1C(=O)NCc1ccco1,-17%,-15%,-4%,12%,-11%,-2%,10%,-8.2%
O=[N+]([O-])c1ccccc1S(=O)(=O)N1CCCC(C(F)(F)F)C1 (stereo not given),-15%,-4%,.,-14%,?,?,4%,.
Cc1cccc(NC(=O)c2cc(S(=O)(=O)c3ccccc3)ccc2Cl)c1,-40%,15%,-2%,12%,?,?,1%,-4.9%
O=C(CCNC(=O)c1ccccc1Cl)NN=Cc1ccco1,-16%,.,.,-17%,9%,?,5%,.
Cc1ccccc1-n1c(Cn2c(=O)sc3ccccc32)nnc1SCC(=O)Nc1nccs1,-16%,-23%,7%,12%,.,.,5%,-3.2%
Cc1ccc2nc(N3CCN(c4cccc(Cl)c4)CC3)c3nnnn3c2c1,-14%,.,-8%,.,14%[46.1 µM],.,.,-1.5%
